Screening results: PubChem, several laboratories
T cruzi repl = blocks replication of Trypanosoma cruzi; T. cruzi beta-gal in NIH3T3, luminescence, 90 h; inhibition, % (concentration not given with the values); hit rate 1.4% among 300,000;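 active = mean inhibition across valid replicates above about 55%, limit read from the data; inconclusive = mean below that limit but half or more replicates reach it; inactive = mean below it, under half of replicates reach it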;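 also: signal also drops with host cell toxicity which is not excluded here; 0% = plate median of DMSO wells and 100% = zero luminescence signal; higher percent means less beta-gal luminescence so fewer parasites; stock transfer was 50 nL into about 50 µL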
ALR H2O2 inh = blocks human ALR sulfhydryl oxidase activity; hit rate 3.8% among 290,000; inhibition, % (no concentration beside the values); P55789; purified ALR, DTT oxidation, H2O2 HRP-luminol luminescence;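 active = mean and each replicate at 75% or more; inconclusive = only one of the two met; inactive = neither met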;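 also: stock transfer was 7.5 nL into about 7.5 µL; 0% = neutral wells and 100% = wells with inactivated enzyme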
rRNA inh HTS = selective bacterial rRNA inhibition in E. coli; GFP signal change (wild-type ribosome), % (test concentration not listed); hit rate 1.6% among 350,000; AID 720706; E. coli WT GFP vs humanized-ribosome RFP mutants, fluorescence, 24 h; active compounds read low; DMSO median 0, no signal -100;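 active = significant combined selectivity score with lowered wild-type GFP, culture density cut under 30%, mutant RFP and density less affected; inactive = any of these conditions unmet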; also: one replicate is shown; some compounds called inactive have numbers as strong as hits
Bfl-1 A1 inh = inhibitors of the anti-apoptotic protein A1, read as caspase activation | AID 2462 | caspase activation, % (test concentration not listed) | hit rate 0.066% among 330,000 | MEF A1-2A-BIM cells, Caspase-Glo 3/7 luminescence, 3 h; percent of clofoctol response, vehicle zero;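 active = over half of replicate activation scores above 10%, or exactly half above 10 with the replicate mean above 10; inconclusive = replicate mean below 10 yet half the replicates above 10; inactive = over half of replicates below 10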;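 also: wells of about 30 µL received 50 nL stock; many hits fall short of the cut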
LANA-H2A inh = blocks KSHV LANA binding to histone H2A/H2B | Q9QR71 | cell-free LANA-H2A/H2B peptide, fluorescence polarization | inhibition, % (concentration not given with the values) | hit rate 0.6% among 320,000 | AID 2629; in the data active = inhibition mostly above about 10%, no sharp cut-off; inactive = mostly below about 6.7%;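 also: stock transfer was 7.5 nL into about 10 µL; 0% = median of vehicle wells and 100% = median of positive control wells; one replicate is shown; the record names a cut of 25% in any replicate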
Target sequence (Q9QR71 whole entry, looked up): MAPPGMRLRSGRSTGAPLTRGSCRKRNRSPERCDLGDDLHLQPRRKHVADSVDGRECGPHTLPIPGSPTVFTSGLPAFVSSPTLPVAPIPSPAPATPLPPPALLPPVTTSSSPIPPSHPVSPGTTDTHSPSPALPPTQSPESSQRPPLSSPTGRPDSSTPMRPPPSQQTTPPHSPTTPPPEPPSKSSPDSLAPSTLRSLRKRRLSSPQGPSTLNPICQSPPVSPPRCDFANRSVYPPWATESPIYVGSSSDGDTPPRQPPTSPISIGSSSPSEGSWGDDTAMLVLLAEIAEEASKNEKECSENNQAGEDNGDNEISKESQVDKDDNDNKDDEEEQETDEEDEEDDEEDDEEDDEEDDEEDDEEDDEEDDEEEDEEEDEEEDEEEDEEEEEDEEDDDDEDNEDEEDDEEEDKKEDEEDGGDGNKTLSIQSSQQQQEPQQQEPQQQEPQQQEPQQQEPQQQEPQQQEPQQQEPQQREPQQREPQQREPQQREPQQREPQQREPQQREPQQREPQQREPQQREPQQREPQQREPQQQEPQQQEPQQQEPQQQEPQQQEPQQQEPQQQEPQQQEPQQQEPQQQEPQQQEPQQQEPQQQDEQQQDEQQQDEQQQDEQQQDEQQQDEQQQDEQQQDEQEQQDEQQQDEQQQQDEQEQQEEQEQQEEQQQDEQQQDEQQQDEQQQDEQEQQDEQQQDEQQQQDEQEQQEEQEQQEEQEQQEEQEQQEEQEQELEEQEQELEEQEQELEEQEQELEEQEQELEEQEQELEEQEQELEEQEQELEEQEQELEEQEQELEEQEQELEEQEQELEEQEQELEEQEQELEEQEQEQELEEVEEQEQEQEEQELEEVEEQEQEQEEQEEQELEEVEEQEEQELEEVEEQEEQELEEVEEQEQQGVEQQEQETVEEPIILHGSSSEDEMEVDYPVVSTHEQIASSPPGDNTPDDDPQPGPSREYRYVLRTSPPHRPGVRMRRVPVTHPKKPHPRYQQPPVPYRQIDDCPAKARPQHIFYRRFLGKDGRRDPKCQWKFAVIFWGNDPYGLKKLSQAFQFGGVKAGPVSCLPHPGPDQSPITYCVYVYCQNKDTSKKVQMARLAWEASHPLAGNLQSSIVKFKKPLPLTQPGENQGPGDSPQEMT
Beta cell apopt = beta cell apoptosis inhibition; INS-1E cytokine-induced death, ATP luminescence, 48 h; percent of positive-control rescue, neutral wells zero; hit rate 0.8% among 300,000; protection from apoptosis, % (concentration not given with the values); AID 435005;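 active = all replicates at 75% or more, or half of them and the mean; inconclusive = half reach 75% but not the mean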;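 also: 0% = cytokine-treated negative control wells and 100% = positive control rescue; higher means more ATP so stronger rescue from cytokine killing; wells of about 40 µL received 100 nL stock; the first replicate is given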
Calb FLC = affects C. albicans growth with fluconazole; C. albicans CaCi-2 (fluconazole-resistant clinical isolate) + fluconazole, Alamar Blue growth, 48 h; growth inhibition, % (test concentration not listed); hit rate 0.57% among 300,000;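 active = most replicates above 75%; inconclusive = exactly half above 75%; inactive = most below 75%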;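 also: all wells also contain fluconazole at 8 µg/ml as a sub-toxic cotreatment; 0% = median of DMSO wells and 100% = median of geldanamycin control wells; wells of about 8 µL received 7.5 nL stock; the first replicate is given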
Beta2AR agonist = activates human beta-2 adrenergic receptor causing internalization | response, % (concentration not given with the values) | Am2.2-beta2AR cells, FAP receptor internalization, flow cytometry; reference of the scale not given here | hit rate 0.43% among 340,000;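 active = response above a set limit, near 3 SD of response in nonfluorescent compounds, cut at about 42% in these data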;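 also: stock transfer was 100 nL into about 11 µL; a reference agonist was the positive control; negative values mostly stem from fluorescent compounds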
rRNA inh HTS OD600 = further read-out of rRNA inh HTS, marked with its call; OD600 change, %; measured here: OD600 growth;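 optical density of the mix in the first replicate; 0 = DMSO median and -100 = no signal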
rRNA inh HTS RFP = also measured in rRNA inh HTS; calls as there; RFP signal change, %; measured here: RFP humanized mutant strains;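 first replicate; 0 = DMSO median and -100 = no signal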
* = called active by the depositor; ? = inconclusive; . = no result given.

canonical_smiles,T cruzi repl,ALR H2O2 inh,rRNA inh HTS,rRNA inh HTS OD600,rRNA inh HTS RFP,Bfl-1 A1 inh,LANA-H2A inh,Beta cell apopt,Calb FLC,Beta2AR agonist
COc1ccc(OC)c(-c2nc(CN3CCN(C(=O)c4ccco4)CC3)c(C)o2)c1,1,0,-2,-4,-1.4,2.4,0.1,-3,-26,1
O=C(Cn1c(=O)sc2ccccc21)OC(CCl)CCl,-8,10,.,.,.,-0.2,3.0,-5,-3,8
COc1ccc(-c2cn3cccc(C)c3n2)cc1Br,-13,7,.,.,.,-6.3,-3.4,8,38,-3
CCC1CCCCN1C(=O)Nc1cccc(NC(=O)N2CCCCC2CC)c1 (stereo unspecified),5,-44,.,.,.,-0.3,-4.7,-1,-1,-7
COc1cccc(NC(=O)CN(C)C(=O)CNC(=O)c2ccc3ccccc3c2)c1,-2,3,-7,-5,-2.7,-1.7,0.3,-3,2,-5
O=S(=O)(NCC1CCCO1)c1ccc(Br)cc1 (stereo unspecified),-3,-12,18,5,-0.1,2.9,4.4,-6,-3,1
COC/C=C/C1=CC2=CC(=O)C(C)(OC(=O)c3cccs3)C(=O)C2=CO1 (stereo unspecified),2,15,.,.,.,-0.4,-1.0,1,1,.
COc1ccc(S(=O)(=O)N(CC(=O)NCc2cccnc2)c2ccc(F)cc2)cc1OC,-3,-7,.,.,.,0.2,3.9,2,2,.
CCC(C)Sc1nc2ccccc2c(=O)[nH]1 (stereo unspecified),-9,-12,.,.,.,0.0,6.0,5,-4,21
Cc1csc(NC(=O)Nc2cccc(Cl)c2)n1,7,.,.,.,.,-3.5,-0.8,5,-39,25
O=C(c1cc(F)ccc1F)C1CCCN(C(=O)CCc2cnccn2)C1 (stereo unspecified),-10,-5,11,11,1.1,0.5,-2.8,-8,1,2
CCCCNC(=O)C(=O)N/N=C/c1ccc(OCc2ccccc2)cc1,0,-15,11,10,1.2,-1.2,0.8,-1,-1,-3
COc1ccc(C(=O)NCCCNC(=O)c2cccnc2)cc1OC,3,-2,3,9,0.9,0.1,-1.0,5,-4,4
COC(=O)c1ccc(C(C(=O)NCc2ccccc2)N(Cc2cccs2)C(=O)c2cnccn2)cc1 (stereo unspecified),7,-10,.,.,.,-0.1,0.0,-3,-6,-7
Cc1cccc(NC(=O)C2CCCN(S(=O)(=O)c3cccc4nonc34)C2)c1 (stereo unspecified),19,0,9,10,1.1,0.3,-4.5,-3,18,2
COc1ccc(CN2CCN(C(=O)CCC(=O)Nc3nnc(C4CCCCC4)s3)CC2)cc1F,33,-2,1,-12,12,-0.3,0.3,.,2,0
Cc1cnc(CN(C)C(=O)C2CCC(=O)N(CCc3ccccc3)C2)[nH]1 (stereo unspecified),1,-1,1,3,-1.1,0.5,-1.7,-4,-3,-11
Cc1ccccc1NC(=O)CCc1c(C)nn(-c2ccc(N3CCCCC3)nn2)c1C,4,9,0,10,-2.0,0.8,-1.1,.,10,-5
COc1ccccc1NC(=O)c1ccc(-c2nn(C)c(=O)c3ccccc23)cc1,10,-24,9,16,1.3,-0.4,-3.7,-1,0,4
CC1(C)CCN2CCC(C)(C)c3c(O)ccc1c32,50,31,15,-16,35,-0.8,7.1,111*,?,-210
NC(=O)c1cc([N+](=O)[O-])ccc1NCC1CCCCC1,.,2,-14,-9,-2.6,-0.8,3.7,5,.,-9
COc1ccc(NC(=O)c2cc3ccc(O)cc3o/c2=N\O)cc1,-7,23,-8,4,2.8,-6.5,-0.1,.,13,3
O=C(O)c1nnn(-c2ccc([N+](=O)[O-])cc2)c1-c1ccccc1,.,-10,-1,-5,-2.6,0.8,-3.8,-11,-1,4
COc1ccc(CCNC(=S)Nc2ccc(OC)cc2)cc1,-9,-1,.,.,.,-0.4,-5.3,-2,-8,0
O=S(=O)(NCc1cccs1)c1ccc(Br)cc1,-11,4,-23,-21,-4.3,-0.3,1.9,.,-2,0
O=C(NCCSc1ccccc1)c1ccccc1F,-9,.,-6,-4,0.6,-4.7,0.1,4,-4,-8
COC(=O)c1ccccc1NC(=S)NC(=O)COc1ccc(C(C)C)cc1,-5,.,.,.,.,0.6,0.5,-1,1,-1
CC1=C(C(=O)OCC2CCCO2)C(c2ccc(C)cc2)C2=C(CCCC2=O)N1 (stereo unspecified),17,-26,2,5,-2.3,-0.6,-3.7,-25,-1,0
O=C1c2ccccc2-c2nccnc21,-6,-5,.,.,.,0.3,-1.4,-2,23,-3
CC(C)c1ccc(NC(=O)c2ccc(NS(C)(=O)=O)cc2)cc1,13,-1,4,-4,-6.1,0.3,-4.1,-1,-9,9

An excerpt from above in order of the ALR H2O2 inh value, descending:
Structure | ALR H2O2 inh
CC1(C)CCN2CCC(C)(C)c3c(O)ccc1c32 | 31
COc1ccc(NC(=O)c2cc3ccc(O)cc3o/c2=N\O)cc1 | 23
Cc1cccc(NC(=O)C2CCCN(S(=O)(=O)c3cccc4nonc34)C2)c1 (stereo unspecified) | 0
CC(C)c1ccc(NC(=O)c2ccc(NS(C)(=O)=O)cc2)cc1 | -1

Back to the main list, repeating the 2 entries before the break.
canonical_smiles,T cruzi repl,ALR H2O2 inh,rRNA inh HTS,rRNA inh HTS OD600,rRNA inh HTS RFP,Bfl-1 A1 inh,LANA-H2A inh,Beta cell apopt,Calb FLC,Beta2AR agonist
O=C1c2ccccc2-c2nccnc21,-6,-5,.,.,.,0.3,-1.4,-2,23,-3
CC(C)c1ccc(NC(=O)c2ccc(NS(C)(=O)=O)cc2)cc1,13,-1,4,-4,-6.1,0.3,-4.1,-1,-9,9
N#CC(C#N)=C(N)CSc1cccc[n+]1[O-],-12,22,16,15,2.6,-0.1,0.3,-1,-2,2
Cc1ccc(N2C(=O)N(CC(=O)NC(N)=O)C(=O)C2C)cc1 (stereo unspecified),7,1,13,9,3.1,0.2,-0.5,-1,11,8
COc1ccc(S(=O)(=O)Nc2cccc(-c3ccc4nncn4n3)c2)cc1,17,-6,-1,7,-0.5,-0.4,3.7,16,0,6
COc1cc(O)c(CC=C(C)C)c(O)c1C(=O)CCc1ccc(O)cc1,-10,-2,.,.,.,-0.6,2.4,.,20,10
CC(C)CC(NC(=O)C(NC(=O)C1OC2OC(C)(C)OC2C2OC(C)(C)OC12)C(C)C)C(=O)O (stereo unspecified),-8,3,-2,22,0.6,1.9,1.5,-8,-6,-1
Cc1ccccc1C(=O)Nc1sc(C)c(C)c1C(=O)c1ccccc1,29,4,.,.,.,0.5,0.6,10,15,-11
Cc1c(C(=O)C(=O)NCC2CCCO2)c2ccccc2n1C (stereo unspecified),-9,-1,14,6,-2.0,0.6,-3.8,-5,10,0
C=CCNC(=S)N1CCN(Cc2ccccc2)CC1,-9,-4,13,6,-1.5,-0.2,18*,1,3,7
CCc1ccccc1NC(=O)c1ccc(CN2CCC(Cc3ccccc3)CC2)cc1,43,-10,.,.,.,1.7,6.3,0,-7,20
Cc1sc(NC(=O)Cc2ccc3c(c2)OCO3)nc1-c1ccc2c(c1)CCN2C(=O)c1ccc(F)cc1,19,-5,.,.,.,-0.4,0.3,22,-4,-14
Cn1c(NNC(=O)c2c(F)cccc2F)cc(=O)n(C)c1=O,8,.,8,3,-4.5,0.6,-3.3,3,8,-3
CSc1ncccc1C(=O)OCC(=O)NC1CCCc2ccccc21 (stereo unspecified),.,-10,-8,-8,3.0,-0.2,7.1,-5,.,-2
O=C(Cn1[nH]c(=O)c2ccccc2c1=O)OCC(=O)c1ccc(F)cc1,-5,0,1,6,-2.6,0.2,7.4,-3,.,-5
O=C(c1ccc(S(=O)(=O)N2CCCCC2)cc1)N1CCCC(C(F)(F)F)C1 (stereo unspecified),-3,0,5,9,0.2,0.4,-2.0,-6,1,3
Cn1c(=O)c2c(nc(CN3CCN(Cc4ccccc4)CC3)n2Cc2ccc(F)cc2)n(C)c1=O,9,6,-4,-18,16,0.9,3.9,4,2,-2
COCC1CCN(C(=O)C2CCC(=O)N(Cc3ccc(Cl)cc3)C2)CC1 (stereo unspecified),-13,-4,2,-6,-2.9,-0.7,4.7,1,8,-3
O=C(c1ccco1)N1CCN(c2ccccc2F)CC1,-1,-1,.,.,.,-1.5,-1.7,3,-1,-2
O=C(O)C1CCN(C(=O)c2ccco2)CC1,-15,-2,14,13,3.1,-0.7,-6.7,0,-1,1
OC(CNCC(c1ccco1)N1CCCCC1)c1ccccc1 (stereo unspecified),-1,.,.,.,.,1.2,-0.3,1,-26,-1
Cc1ccc(C)c(C(=O)CN2C(=O)NC3(CCCCCCC3)C2=O)c1,8,0,4,3,-0.4,-0.4,-4.3,1,-9,-1
COc1cc2[nH]c(=S)nc(NCCC(C)C)c2cc1OC,-7,46,-8,-6,-2.8,1.8,1.1,5,-8,-7
CN(C)S(=O)(=O)c1cccc(N=C2SCCN2Cc2ccccc2)c1,-1,1,-25,-24,4.0,0.0,2.9,7,2,6
O=C(O)c1ccc(NS(=O)(=O)c2ccc3c(c2)OCCO3)cc1,-6,-2,3,4,1.8,0.4,-0.8,0,-5,8
Cc1cc(C)c(S(=O)(=O)NCc2cccs2)cc1C,-8,-13,-11,-20,-1.4,1.6,6.9,0,13,6
Oc1ccc(-c2nnc(SCC3CCCCC3)o2)cc1,49,-4,.,.,.,-0.4,3.0,1,2,12
CCSc1ccc(C(=O)Nc2ccc(Br)cn2)cc1[N+](=O)[O-],26,17,11,23,-3.2,0.9,-1.4,8,-10,-5
O=C1c2ccccc2C(=O)N1OCc1ccc(Cl)cc1,-18,-2,.,.,.,-1.2,5.0,-11,2,-4
CC(C)Cn1c(SCC(=O)O)nnc1-c1cccc(S(=O)(=O)N2CCOCC2)c1,.,.,18,16,-0.7,0.5,-1.7,-5,.,-7
Cc1ccc(-n2nnc3c(=O)n(CC(=O)OCc4ccccc4)cnc32)cc1,-10,-13,3,5,-3.9,-0.1,1.4,-6,-2,7
CC(C)(C)C(=O)Nc1cc(NC(=O)C(C)(C)C)cc(C(=O)NNC(=O)c2ccncc2)c1,8,-39,8,6,-0.9,2.3,9.6,5,-2,-51

Not all compounds are listed, so the mix of outcomes need not match the whole.
